KCNQ2 block: KCNQ2 potassium channel inhibitors, primary screen, cell-based, CHO-K1, FluxOR thallium flux, B-score (AID 2156) | actives 1.1% (n = 310,000) | 20 min; active compounds read low; only compounds with negative scores are shown here; some inactives read as strong as hits | Potassium voltage-gated channel subfamily KQT member 2 (Rattus norvegicus), O88943 | B-score at 10 µM;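 active = fluorescence ratio B-score at most minus 3 library SDs, with starting brightness B-score within 2 library SDs, cut at about -5.5 in these data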
Target sequence (O88943 whole entry, looked up): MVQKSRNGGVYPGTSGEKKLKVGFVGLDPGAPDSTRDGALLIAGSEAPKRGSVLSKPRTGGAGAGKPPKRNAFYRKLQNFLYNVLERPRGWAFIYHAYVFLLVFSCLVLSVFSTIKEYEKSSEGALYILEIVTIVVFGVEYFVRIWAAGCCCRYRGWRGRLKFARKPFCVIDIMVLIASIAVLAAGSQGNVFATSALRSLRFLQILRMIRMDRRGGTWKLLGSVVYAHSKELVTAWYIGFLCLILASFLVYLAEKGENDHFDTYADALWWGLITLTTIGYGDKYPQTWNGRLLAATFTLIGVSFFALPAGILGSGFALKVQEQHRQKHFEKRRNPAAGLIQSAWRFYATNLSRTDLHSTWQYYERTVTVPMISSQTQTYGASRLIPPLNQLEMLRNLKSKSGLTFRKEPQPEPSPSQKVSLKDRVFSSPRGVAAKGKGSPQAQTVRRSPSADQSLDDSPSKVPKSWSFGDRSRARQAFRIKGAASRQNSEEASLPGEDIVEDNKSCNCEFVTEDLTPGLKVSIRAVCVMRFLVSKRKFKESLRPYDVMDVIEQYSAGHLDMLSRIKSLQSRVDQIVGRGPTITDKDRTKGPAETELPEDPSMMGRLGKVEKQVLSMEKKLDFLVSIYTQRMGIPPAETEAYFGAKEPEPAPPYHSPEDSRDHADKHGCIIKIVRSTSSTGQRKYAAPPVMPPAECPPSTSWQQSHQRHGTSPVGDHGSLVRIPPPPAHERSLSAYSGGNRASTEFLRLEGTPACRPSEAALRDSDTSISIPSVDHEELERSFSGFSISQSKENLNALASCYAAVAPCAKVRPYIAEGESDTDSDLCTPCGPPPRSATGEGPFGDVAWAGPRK
KCNQ2 block baseline: also measured in KCNQ2 block; calls as there; B-score; measured here: initial fluorescence intensity artifact check;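 brightness before thallium and not channel activity; 0 = typical well and far values either way flag optical interference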
Active calls of the source: *; i = inactive.

SMILES	KCNQ2 block	KCNQ2 block baseline
CCCCN(CC)CCCNC(=O)C1CCN(c2ncnc3c2sc2cccc(F)c23)CC1	i	0.84
COCCNC(=S)N1CCN(c2nc(-c3ccc(Cl)cc3)cs2)CC1	i	1.7
Cc1ccc(C(=O)N(CC(=O)NC2CCCC2)c2ccccc2Cl)s1	i	-0.24
CC1=CC(c2ccc(Cl)cc2)n2nc(NC(=O)CCCC(=O)O)nc2N1 (configuration not stated)	i	2
S=C(NCCCN1CCOCC1)Nc1ccc(Cl)c(Cl)c1	i	0.06
Nc1cc(Cl)ccc1N1CCCCC1	i	-0.15
O=c1oc2ccccc2cc1-c1csc(NN=C2CCCCC2)n1	i	0.05
O=C(CSc1nc(-c2ccccc2)cc(=O)[nH]1)NCc1ccc2c(c1)OCO2	i	0.4
Cc1n[nH]c(=O)nc1N/N=C/c1cccs1	i	0.38
CCCc1nc(NCc2ccco2)c(C#N)c2c1COC(C)(C)C2	i	1.2
CSc1nnnn1-c1ccc(C)c(Cl)c1	i	0.15
Cc1c(Cl)cccc1NC(=O)Cn1nnc(C(=O)NCc2cccs2)c1N	i	-0.44

Rewritten with values under each structure: part of the list above
Under each structure – KCNQ2 block | KCNQ2 block baseline
CCCCN(CC)CCCNC(=O)C1CCN(c2ncnc3c2sc2cccc(F)c23)CC1
 : i | 0.84
Cc1n[nH]c(=O)nc1N/N=C/c1cccs1
 : i | 0.38

The listing continues.
SMILES	KCNQ2 block	KCNQ2 block baseline
COC(=O)c1c(NC(=O)Cc2ccccc2)sc2c1CC(C)(C)NC2(C)C	i	0.01
COc1ccc(-c2ccc(-c3noc(C(C)C)n3)c(OC)n2)cc1	i	-1.6
Cc1nc(C)c(CCNC(=O)c2ccc(C(F)(F)F)cc2)s1	i	-1.8
CCOC(=O)c1c(N)sc(C(O)(C(F)(F)F)C(F)(F)F)c1-c1ccccc1	-7.2*	-1.7*
O=C(CN1C(=O)C2CCCCC2C1=O)N1CCN(c2ncccn2)CC1 (configuration not stated)	i	0.39
CC1(C)CC(CC(=O)O)(c2ccc(F)cc2)CCO1 (configuration not stated)	i	2.2
COc1ccc(-c2sc3ccccc3c2C#CCCO)cc1	i	0.85
COc1cc(C2C3C(=O)N(c4ccccc4)C(=O)C3ON2c2ccccc2)ccc1O (configuration not stated)	i	0.8
COc1cccc(OC)c1OCc1cc(C2C3CCCC=C3C(C#N)=C(N)C2(C#N)C#N)c(C)cc1C (configuration not stated)	-11*	-0.14*
CN(C)/C=C1\SC(=S)N(c2ccc(F)cc2)C1=O	i	2
CCOC(=O)c1ccc(N2C(=O)CC(N(Cc3ccc4c(c3)OCO4)C(=O)Nc3ccccc3)C2=O)cc1 (configuration not stated)	i	-0.47
CC12CCC(C(=O)NCc3ccccc3Cl)(OC1=O)C2(C)C (configuration not stated)	i	1.5
Cc1ccc(CNC(=O)CCCc2cn(C)c3ccccc23)cc1	i	-0.05
CCN(C(=O)CSc1nnnn1-c1cc(C)ccc1OC)C1CCS(=O)(=O)C1 (configuration not stated)	i	-1.8
Cc1cc(C)c(C2C3=C(Nc4c2c(C)nn4-c2ccccn2)c2ccccc2C3=O)c(C)c1 (configuration not stated)	i	-0.06
CN(C)c1oc(-c2ccccc2Cl)nc1P(=O)(c1ccccc1)c1ccccc1	-9.5*	-3.1*
N#Cc1c(-c2ccccc2)c(-c2ccccc2)n(Cc2ccco2)c1NC(=O)c1cccs1	-6.3*	-0.57*
CC(CCc1ccco1)NC(=O)c1cc2c(-c3ccccc3F)nn(C)c2s1 (configuration not stated)	i	0.27
CC(=O)N1CCN(S(=O)(=O)c2cccc(C(=O)NCCC3=CCCCC3)c2)CC1	i	1.8
C=CCn1c(SCC(=O)NCc2ccco2)nc2sc(C)c(C)c2c1=O	i	1.6
c1ccc(-c2ccccc2OCCCCN2CCCCC2)cc1	i	-0.34
CCc1nnc(NS(=O)(=O)c2ccc(NC(=O)c3cccc4ccccc34)cc2)s1	i	0.03
Cc1ccc(N2CCN(/N=C/C3=C(N4CCOCC4)C(=C\c4ccccc4)/CC3)CC2)cc1	i	-1.2
CCCCCCC(=O)Nc1ccc(Br)cn1	i	-0.18

Nothing new here: entries from further up.
SMILES	KCNQ2 block	KCNQ2 block baseline
c1ccc(-c2ccccc2OCCCCN2CCCCC2)cc1	i	-0.34
CCc1nnc(NS(=O)(=O)c2ccc(NC(=O)c3cccc4ccccc34)cc2)s1	i	0.03
Cc1ccc(N2CCN(/N=C/C3=C(N4CCOCC4)C(=C\c4ccccc4)/CC3)CC2)cc1	i	-1.2
CCCCCCC(=O)Nc1ccc(Br)cn1	i	-0.18

Entries of single compounds, looked up by structure.
CC(=O)N1CCN(S(=O)(=O)c2cccc(C(=O)NCCC3=CCCCC3)c2)CC1 across the screens: KCNQ2 block: i; KCNQ2 block baseline: 1.8
Cc1ccc(CNC(=O)CCCc2cn(C)c3ccccc23)cc1 across the screens: KCNQ2 block: i; KCNQ2 block baseline: -0.05

Going on with the list.
SMILES	KCNQ2 block	KCNQ2 block baseline
O=C(c1ccccc1)N1N=C(c2cccs2)CC1c1ccccc1O (configuration not stated)	i	-1.6
O=C(CSc1nnc(-c2cccc(S(=O)(=O)N3CCCCC3)c2)o1)NCCC1=CCCCC1	i	-0.52
CCOC(=O)C(=CNc1ccc(S(N)(=O)=O)cc1)C(=O)OCC	i	0.51
CC(C)(C)C1CCC(=NNS(=O)(=O)c2ccc(Br)cc2)CC1 (configuration not stated)	i	0.61
CCN(CC)S(=O)(=O)c1cc([N+](=O)[O-])ccc1N=Nc1c(O)[nH]c2ccccc12	i	0.71
CC(C)NC(=O)COC(=O)c1cc(Br)ccc1Cl	i	-0.63
CN(C)CCCNC(=O)/C(=C\c1ccc(-c2cccc([N+](=O)[O-])c2)o1)NC(=O)c1ccccc1	i	-0.33
Nc1nc(SCC(=O)Nc2ncc(C(F)(F)F)cc2Cl)n[nH]1	i	0.08
O=C(Nc1cccc(S(=O)(=O)NC2=NCCC2)c1)c1cc(Cl)ccc1[N+](=O)[O-]	i	-2.4
O=C1CC(c2c[nH]c3ccccc23)C(=O)N1c1ccccc1 (configuration not stated)	i	-1.3
Cc1cccn2c(=O)nc(SCC(=O)NC3CCCCC3)nc12	i	0.21
Cc1ccc(C(=O)OCC(=O)N(CCc2ccccc2)Cc2ccccc2)cc1S(=O)(=O)N1CCOCC1	-6*	-0.17*
CCCc1[nH]nc2c1C(c1ccncc1)C(C#N)=C(N)O2 (configuration not stated)	i	0.02
CCC(C)c1ccccc1NC(=O)C(C)NCCN(C)C (configuration not stated)	i	2.9
Cc1cc(NC(=O)c2c(-c3ccccc3Cl)noc2C)no1	i	-1.1
O=C(Nc1ccc(N2CCN(C(=O)c3cccs3)CC2)c(Cl)c1)c1cccnc1	i	-1.7
Brc1cccc(CNc2nc3ccccc3n2CCN2CCCCC2)c1	i	0.09
CC(C(=O)Nc1ccc2c(c1)OCCO2)N(c1ccccc1)S(C)(=O)=O (configuration not stated)	i	-0.88
Cc1nnc(SCCn2c(Br)nc3c2c(=O)n(C)c(=O)n3C)s1	i	-0.01
COCCN1C(=O)C(=O)/C(=C(/O)c2cccc(OC)c2)C1c1ccco1 (configuration not stated)	i	-1.6
O=C(CSc1nccn1-c1ccc(Cl)cc1)N1CCCc2ccccc21	i	0.05
CN(C)CCn1c(SCc2ccccc2C#N)nc2c(sc3ccccc32)c1=O	i	-1.6
Cc1ccc(S(=O)(=O)N(C)c2ccc(OCC(=O)Nc3nnc(C4CC4)s3)cc2)cc1	i	-0.07
COCCN=c1scc(-c2cccs2)n1/N=C(\C)c1ccco1	i	-0.01
O=C(NCCc1ccccn1)c1cc(-c2ccc(Cl)c(Cl)c2Cl)nc2ccccc12	i	-0.44
Cc1cc(Cl)ccc1OCC(=O)N(Cc1cccs1)C1CCS(=O)(=O)C1 (configuration not stated)	i	-2.7
O=C1CCC(/C=C/c2ccccc2)=NN1	i	-0.05
CCOc1ccc(N(CC(=O)Nc2cccnc2)S(=O)(=O)c2ccc(C)cc2)cc1	i	-0.04
S=C(NCc1ccc(Cl)cc1)Nc1ccncc1	i	2
Nc1nc(SCC(=O)Nc2c(Br)cc([N+](=O)[O-])cc2Br)n[nH]1	i	1.7
CCCCOC(=O)Oc1ccc2c(=O)c(Oc3cc(C)cc(C)c3)coc2c1	i	6.5
COc1cc(C2NC(=O)C(C#N)=C(S)N2c2ccc(C)cc2)ccc1OC(C)C (configuration not stated)	i	-1.1
Cc1ccc(CSCC(=O)NCc2ccc(F)cc2)cc1	i	0.24
CCN(CC)CC#CCC(O)(c1ccccc1)c1ccccc1	i	-2.4
CNC(=O)CSc1nnc(NC(=O)C2CC(=O)N(c3ccccc3OC)C2)s1 (configuration not stated)	i	1.1
CN(C1CCCCC1)S(=O)(=O)c1ccc(NC(=O)c2ccc(Br)o2)cc1	i	2.1
Cc1ccc(S(=O)(=O)N2CCN(CC(=O)N/N=C\c3ccc(O)c(O)c3)CC2)cc1	i	-0.57
COc1cc(C(=O)OCC(=O)NCC2CCCCC2)ccc1OCC(C)C	i	0.43
O=S(=O)(Cc1cc(Cl)nc(-c2cccnc2)n1)c1ccccc1	i	1.1
CC(=O)N1CCSc2ccc(S(=O)(=O)NCCc3cccc(C)c3)cc21	i	-0.06
O=C(COC(=O)CCNS(=O)(=O)c1ccc2c(c1)OCCO2)NC1CCCc2ccccc21 (configuration not stated)	i	1.5
COc1ccc(/C=N/Nc2nc(C)cc(-c3ccccc3)n2)cc1OC	i	-1.3
CCOC(=O)c1ccc(Nc2cc(C)nc(N3CCOCC3)n2)cc1	i	-1.1
CC(C)CN(CCOc1cccc(N2C(=O)C3=C(CCCC3)C2=O)c1)CC(C)C	i	1.1
c1ccc(CCn2nnnc2CN2CCCc3ccccc32)cc1	i	-0.54
COc1cccc(OC(C)c2ccnc3nc(/N=C/N(C)C)nn23)c1 (configuration not stated)	i	1.3
CCOc1ccc2[nH]c(=O)c(CN(Cc3nnnn3Cc3ccco3)C3CCCCC3)cc2c1	i	0.89
CCOc1cc(S(=O)(=O)NCc2cccs2)ccc1Cl	i	0.57
O=[N+]([O-])c1cccc(-c2nnc(-c3ccccc3F)o2)c1	i	0.54
O=C(COc1ccc2ccccc2c1)NCCn1ccc2ccccc21	i	0.84
c1ccc(C2=NN(c3ccccc3)CC2)cc1	i	-0.15
CC(C)CC(NC(=O)c1cccs1)c1nnc(SCc2ccc(Cl)c(Cl)c2)n1C (configuration not stated)	i	1.4
CC(=O)Nc1ccc(NC(=O)C(C)OC(=O)CSc2ccc(Br)cc2C)cc1 (configuration not stated)	i	0.97
CC(=O)c1cccc(NC(=O)COC(=O)COc2ccccc2C)c1	i	-1.7
Cn1c(N2CCCCC2)cc(=O)n(C)c1=O	i	0.19
Oc1ccc2ccccc2c1C1Nc2cccc3cccc(c23)N1	i	-0.25
CCN(CC)c1ccc(-c2sc(Nc3ccccc3)n[n+]2-c2ccc(F)cc2)cc1	i	46
CC1=C(C(=O)OCC2CCCO2)C(c2ccc(C)o2)C2=C(CC(c3ccc(F)cc3)CC2=O)N1 (configuration not stated)	i	-1.8
Cc1cc(SCC(=O)c2cc(C)n(C)c2C)nc2ccccc12	i	0.01
Cc1cccc(CCNS(=O)(=O)c2cc3c(cc2C)NC(=O)CO3)c1	i	-1.2

Further records follow.
SMILES	KCNQ2 block	KCNQ2 block baseline
COC(=O)Nc1sc2nc(C)cc(C)c2c1-n1cccc1	i	2.2
Cc1ccc(CN2CCN(/N=C/c3ccco3)CC2)c(C)c1	i	1.7
COc1cc2sc(C)nc2c2ccccc12	i	-0.24
COc1ccccc1NS(=O)(=O)c1ccc(Cl)c(NC(=S)NC(=O)C2CCCC2)c1	i	-0.45
CCC(=O)N1c2ccccc2NC2=C(C(=O)CCC2)C1c1cccnc1 (configuration not stated)	i	0.57
O=C(CN(c1cccc([N+](=O)[O-])c1)S(=O)(=O)c1ccccc1)N1CCCCC1	i	0.41
Nc1ccc(O)c(C(=O)O)c1	i	1.7
CN(CCC1CCOCC1)C(=O)CC1C(=O)NCCN1CC1CCCCC1 (configuration not stated)	i	-1.1
CCOP(=O)(OCC)C(Nc1ccc(C)cc1)c1ccco1 (configuration not stated)	i	1.1
Cc1ccc2[nH]c(=O)c(CN(CC3COCCO3)C(=O)Nc3ccccc3F)cc2c1 (configuration not stated)	i	-0.28
Cc1ccc(S(C)(=O)=O)cc1S(=O)(=O)Nc1cccc(Cl)c1	i	1.8
Cc1cc(C)n2nc(CC(=O)NNC(=O)COc3cccc(C)c3C)nc2n1	i	-0.67

3 compounds already listed, sorted by the value under KCNQ2 block baseline, falling:
SMILES	KCNQ2 block	KCNQ2 block baseline
Cc1ccc(S(C)(=O)=O)cc1S(=O)(=O)Nc1cccc(Cl)c1	i	1.8
Nc1ccc(O)c(C(=O)O)c1	i	1.7
Cc1cc(C)n2nc(CC(=O)NNC(=O)COc3cccc(C)c3C)nc2n1	i	-0.67

Other records:
SMILES	KCNQ2 block	KCNQ2 block baseline
COc1ccc(C2Nc3ccccc3C(=O)N2C2CCCCC2)cc1 (configuration not stated)	i	-0.81
O=C(NNC(=S)NC(=O)c1ccccc1[N+](=O)[O-])c1ccccc1O	i	-0.43
CCCCCCCCn1c(=O)c(C(=O)OC)c(N)c2ccccc21	i	0.71
O=C(c1cc2ncc(Br)cn2n1)N1CCN(C(=O)c2ccco2)CC1	i	0.02
CC(Oc1ccc(Cl)cc1Cl)C(=O)N/N=C1\CCCc2ccccc21 (configuration not stated)	-6.7*	-0.43*
CC1CCN(C(=S)SCc2nc(N)nc(Nc3ccccc3)n2)CC1	i	-0.1
N#CCC(=O)N/N=C/c1cccc(Oc2ccccc2)c1	i	0.09
COc1ccccc1NC(=O)COc1cc(C)nc(C(C)C)n1	i	2.1
O=C(NC1CC1)c1ccc(NS(=O)(=O)c2ccc(F)cc2)cc1	i	-1.1

An excerpt, so the mix of outcomes need not match the whole.
